Compound activity from PubChem BioAssay.
GALR2 ag: GALR2 receptor agonists, primary screen, cell-based; Galanin receptor type 2 (Homo sapiens), O43603; GALR2-expressing cells, agonist activation read-out; activation, %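 (tested at 5 µM)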; 140,000 tested, 0.48% active; AID 803, 2007;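 active means above mean plus 3 SD of all compounds, about 5% in these data, not always enough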;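 further: 0% = vehicle buffer wells and 100% = reference agonist at full effect; tested in CHO reporter cells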
Target sequence (O43603 whole entry, looked up): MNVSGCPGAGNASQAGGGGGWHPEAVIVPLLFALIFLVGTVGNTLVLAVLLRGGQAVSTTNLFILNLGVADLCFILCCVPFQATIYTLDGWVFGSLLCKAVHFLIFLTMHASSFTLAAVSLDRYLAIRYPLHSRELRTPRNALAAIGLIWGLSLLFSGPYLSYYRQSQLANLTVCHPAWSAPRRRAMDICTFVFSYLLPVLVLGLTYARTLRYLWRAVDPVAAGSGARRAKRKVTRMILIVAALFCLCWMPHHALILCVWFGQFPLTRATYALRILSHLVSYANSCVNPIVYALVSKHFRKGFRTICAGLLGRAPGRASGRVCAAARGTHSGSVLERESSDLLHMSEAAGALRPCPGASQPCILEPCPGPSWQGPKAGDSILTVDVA
HSV augment: enhancers of HSV replication in host cells, fold increase, host cell viability. HSV replication augmentation in cells. maximum fold increase. 220,000 tested, 0.005% active. AID 1956, 2009;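 active means peak rise of 1.5-fold or more in the series; inconclusive means self-fluorescent or not available for retest; tested in PC3 cells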;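 further: first round at 10 µM; read as green reporter fluorescence; hits show the peak of a series up to 25 µM; 1 = signal of infected wells without compound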
PKD1 kinase inh: inhibitors of human PKD1 kinase, biochemical, fluorescence polarization. Serine/threonine-protein kinase D1 (Homo sapiens), Q15139. PKD1 kinase fluorescence polarization assay. 200,000 tested, 0.056% active. inhibition, %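 (about 10 µM by stock and volumes)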;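 active means inhibition of 50% or more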;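 further: controls were vehicle for no effect and a reference inhibitor for full effect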
INS promoter inh: inhibitors of insulin promoter-driven GFP, primary screen, imaging, TRM-6 cells (human fetal islet line), eGFP reporter, cell count | inhibition, % at 2 µM | 130,000 tested, 0.9% active | reporter expression induced with tamoxifen;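 active means inhibition above the mean plus 3 SD, with well images judged a real hit on visual review, cut at about 60% in these data, passing the limit was not always enough; inconclusive means inhibition over the cutoff but images rejected on review; inactive means inhibition not above the cutoff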
RGS16-Gao: modulators of RGS16 binding to Galphao, primary screen, biochemical, human proteins, multiplexed bead flow cytometry; Regulator of G-protein signaling 16 (Homo sapiens) + Guanine nucleotide-binding protein …; bead-based flow cytometry RGS16-Galphao binding, fluorescence; actives lie on both sides; binding response (% of control), % at 10 µM; 220,000 tested, 0.38% active; AID 1441, 2008;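 active means below 25% or above 175%, edge rows of some plates excepted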;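 further: Galphao activated by GDP with aluminum fluoride before binding; 100% = wells without compound and 0% = beads without RGS; some results beyond the cut were filed as inactive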
Target sequence (O15492 whole entry, looked up): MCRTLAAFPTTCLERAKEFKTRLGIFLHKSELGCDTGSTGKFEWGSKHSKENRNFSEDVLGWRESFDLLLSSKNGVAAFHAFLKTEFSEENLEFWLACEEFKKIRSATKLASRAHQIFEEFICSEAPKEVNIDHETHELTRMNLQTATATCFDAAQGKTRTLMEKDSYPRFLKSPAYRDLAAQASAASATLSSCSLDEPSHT
Target sequence (P09471 whole entry, looked up): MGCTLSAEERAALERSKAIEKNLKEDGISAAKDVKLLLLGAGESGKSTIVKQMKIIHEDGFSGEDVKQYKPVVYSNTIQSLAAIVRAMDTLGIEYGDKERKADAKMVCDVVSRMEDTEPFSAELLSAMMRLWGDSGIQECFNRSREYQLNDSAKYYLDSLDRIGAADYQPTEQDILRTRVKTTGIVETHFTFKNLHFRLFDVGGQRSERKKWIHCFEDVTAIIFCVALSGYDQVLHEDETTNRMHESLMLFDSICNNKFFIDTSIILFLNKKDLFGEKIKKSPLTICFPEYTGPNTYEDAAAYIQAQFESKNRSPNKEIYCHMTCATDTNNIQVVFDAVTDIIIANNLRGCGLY
INS promoter inh cell count: also measured in INS promoter inh; calls as there; normalized cell count, %; measured here: cell count, toxicity; reference of the scale not given here;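 cells exposed to compound for 48 h; stained nuclei by imaging scaled within each plate; lower means fewer cells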
HSV augment primary fold: also measured in HSV augment; calls as there; fold increase; compound at 10 µM; measured here: primary screen fold increase 10 uM; tested in PC3 cells;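 GFP signal in the first replicate; 1 = infected wells without compound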
* hit, by the source's call; i = inactive; ? = inconclusive; nt = not tested or not shown.

The line under a structure holds: GALR2 ag	HSV augment	HSV augment primary fold	PKD1 kinase inh	INS promoter inh	INS promoter inh cell count	RGS16-Gao
- CC(/C=C1\SC(=S)N(NC(=O)c2ccccc2C)C1=O)=C\c1ccccc1
    -1.9	i	1.3	1	nt	nt	99
- Cc1ccccc1OCC(=O)OCC(=O)NCC1CCCO1 (stereo not given)
    nt	i	0.94	-1	nt	nt	98
- O=C(Cn1c(=O)c(=O)n(Cc2ccccc2)c2ccc(Cl)cc21)Nc1ccc(F)cc1F
    nt	i	0.95	-3	nt	nt	96
- Cc1cccnc1CCNC(=O)CCc1nnc(-c2ccccc2)o1
    nt	i	1.1	6	nt	nt	98
- COc1cc(C(=O)ON=C2C(C)=CC(=O)C=C2C)cc(OC)c1OC
    -1.5	i	1.1	1	5	51	98
- O=C(COC(=O)c1ccco1)Nc1ccccc1[N+](=O)[O-]
    nt	i	0.81	-3	nt	nt	101
- CCNc1nc(NCC)nc(N2CC(=O)N(CC(=O)OCC)C2=N)n1
    -0.5	i	1	5	40	74	nt
- COc1cccc(CN2CCN(C3CCOCC3)CC2CCO)c1 (stereo not given)
    nt	i	1	nt	nt	nt	94
- O=C(O)C1CCCCN1S(=O)(=O)c1ccc2ccccc2c1 (stereo not given)
    -1.8	i	1.1	-7	nt	nt	104
- Cc1ccc(/C=N/NC(=O)CSCc2ccc(Cl)cc2)cc1
    -3.2	i	0.82	6	nt	nt	98
- COc1cccc(OC)c1OCCCCCc1c(C)n[nH]c1C
    -1.4	i	0.94	-2	nt	nt	93
- CC1=Nc2ccccc2/C1=C\c1sc(Nc2ccc(C)cc2)nc1O
    3.4	i	0.87	-4	3	7	99
- CC1CCCN(c2ccc(C(=O)NCc3ccccc3)cn2)C1 (stereo not given)
    nt	i	0.91	2	nt	nt	101
- O=C(CSC1CN(C(c2ccccc2)c2ccccc2)C1)N/N=C/c1ccccc1
    nt	i	0.98	nt	nt	nt	100
- CCOC(=O)CN1CC23C=CC(O2)C(C(=O)Nc2cc(OC)ccc2OC)C3C1=O (stereo not given)
    -2.1	i	1.1	-2	nt	nt	106
- Cc1cc(C)cc(NC(=O)N2CCN(Cc3ccc4c(c3)OCO4)CC2)c1
    nt	i	0.83	nt	nt	nt	106
- CC1CCN(c2ccccc2NC(=S)NC(=O)c2cccs2)CC1
    -2.0	?	nt	-12	-48	136	95
- Cc1ccc(CNC(=O)c2cccc(OCc3c(C)noc3C)c2)cc1
    -1.0	i	0.92	7	nt	nt	101
- CCN1C(=O)C(C(=O)Nc2ccc(OC)cc2)C2CC1(C)Oc1ccccc12 (stereo not given)
    -1.1	i	1.1	-3	-109	82	102
- Cc1ccc2occ(C3N[C@H](C(=O)O)CS3)c(=O)c2c1 (stereo not given in full)
    -0.1	i	1.1	-8	29	102	116
- CCc1nc(SCC(=O)c2ccc3c(c2)OCCO3)c2ccccc2n1
    -3.3	i	0.96	-2	41	115	242
- CCNS(=O)(=O)c1ccc(OC)c(C)c1
    -1.5	i	0.86	-8	-115	118	102
- CCOC(=O)c1ccc2[nH]c(C)c(C)c2c1
    -3.1	i	0.96	1	-300	85	109
- O=C(CCSc1ccccc1)OCn1nnc2ccccc2c1=O
    nt	i	0.99	4	nt	nt	101
- Cc1nn2c(-c3cccc(NC(=O)c4ccco4)c3)nnc2c2ccccc12
    1.2	i	0.88	-8	-263	61	97
- COC(=O)C1=C(C)N(C(C)c2ccccc2)C(=O)C1 (stereo not given)
    -1.6	i	0.96	-7	nt	nt	120
- CCCc1cc(=O)[nH]c(SCC(=O)c2c[nH]c3ccccc23)n1
    nt	i	1	-7	0	93	104
- Cc1ccc(NCc2nnc(SCC(=O)N3c4ccccc4Sc4ccccc43)o2)c(C)c1
    -0.4	i	1	-2	nt	nt	26
- CCOc1ccc(C(=O)NCC2(c3ccccc3)CCOCC2)cc1
    nt	i	0.8	0	20	83	96
- CCOC(=O)C1=C(N)OC2=C(C(=O)CCC2)C1c1ccc(C)s1 (stereo not given)
    -1.1	i	0.9	-8	nt	nt	92
- NS(=O)(=O)c1ccc(NC(=O)CN2CCc3ccccc32)cc1
    nt	i	0.91	nt	nt	nt	102
- CCN1C(=O)C2(C(C#N)=C(N)Oc3n[nH]c(-c4ccc(Cl)cc4)c32)c2ccccc21 (stereo not given)
    0.3	i	0.8	8	-21	79	105
- COc1ccccc1NC(=O)N1CCCC1C(=O)NC12CC3CC(CC(C3)C1)C2 (stereo not given)
    -0.8	i	1	-5	11	139	104
- CC[N+](C)(C)CC/C=C1/c2ccccc2Sc2ccc(Cl)cc21
    nt	i	1	nt	nt	nt	101
- CC(C)S(=O)(=O)c1csc(C(=O)NN)c1-n1cccc1
    nt	i	1	nt	nt	nt	101
- O=C1c2ccccc2C(=O)N1CSc1ncccn1
    -0.3	i	0.96	-4	23	91	103
- O=C(CN1C(=O)c2ccccc2S1(=O)=O)NCc1ccc2c(c1)OCO2
    -1.3	i	0.99	-8	-6	107	106
- c1ccc(-c2nc(NCc3ccco3)c3ccccc3n2)cc1
    -0.7	i	0.91	-1	-31	131	nt
- CCS(=O)(=O)Nc1ccc(-c2nc3cccnc3s2)cc1
    nt	i	0.8	-7	nt	nt	139
- Cc1cccc2nc(CSc3nc4cc([N+](=O)[O-])ccc4s3)cn12
    -0.6	i	0.98	-7	25	132	104
- Cc1ccc(C(=O)O/N=C\c2ccc(N3CCOCC3)c([N+](=O)[O-])c2)cc1
    -3.4	nt	nt	7	nt	nt	97
- CCOC(=O)C1CCCN(S(=O)(=O)c2ccc(S(=O)(=O)N(CC)CC)cc2)C1 (stereo not given)
    nt	i	0.92	1	nt	nt	112
- COc1ccc(N(CC(=O)N/N=C/c2cc(Br)c(C)o2)S(=O)(=O)c2ccc(NC(C)=O)cc2)cc1
    nt	i	0.96	12	5	64	109
- Cc1ccc(C(C(=O)NC2CCCCC2)N(C(=O)CCCC(=O)Nc2ccccn2)c2ccc3c(c2)OCCO3)cc1 (stereo not given)
    -1.3	i	0.92	2	-10	77	109
- CC(Sc1cccc[n+]1[O-])C(=O)Nc1cccc(S(=O)(=O)N2CCOCC2)c1 (stereo not given)
    -0.5	i	1	-2	nt	nt	103
- N#C/C(=C\c1ccccc1OCc1ccc(C(=O)O)cc1)C(=O)Nc1ccc(O)cc1
    nt	i	0.91	10	0	74	101
- Cn1ncc(Br)c1C(=O)N/N=C/c1ccc(OS(=O)(=O)c2ccccc2)cc1
    0.4	i	0.84	-10	-16	341	48
- COC(=O)c1sc2nc(CSc3nc4ccc(C)cc4[nH]3)[nH]c(=O)c2c1C
    3.7	i	1.1	2	22	66	105
- Cc1ccc(-n2ncc(C(=O)Nc3ccc(Cl)cc3)c2C2CCNCC2)cc1C
    nt	i	0.73	4	-107	92	110
- CC1CCN(c2c(NCc3ccc(C(=O)N4c5ccccc5CC4C)cc3)c(=O)c2=O)CC1 (stereo not given)
    0.0	i	0.96	-4	nt	nt	113
- O=C(CNc1ccccc1-c1ccccc1)NCc1ccccc1
    -1.2	i	0.9	-5	nt	nt	102
- COC(=O)N/N=C/c1cn(CCCOc2ccccc2)c2ccccc12
    0.2	i	0.82	-4	-28	152	103
- CCCCN(C(=O)c1ccc(Cl)c(S(=O)(=O)N2CCOCC2)c1)c1c(N)n(CCC)c(=O)[nH]c1=O
    nt	i	0.92	nt	nt	nt	98
- CCOC(=O)c1sc(-n2[nH]c(C)cc2=O)nc1C
    -5.4	?	nt	5	29	71	107
- Cc1cc(C)cc(NC(=O)Nc2ccc(Cl)cn2)c1
    nt	i	0.88	6	nt	nt	91
- CN(C)c1nc(OCCNC(=O)Nc2ccccc2)nc(N(C)C)n1
    -0.3	i	1.1	2	nt	nt	101
- O=C(O)CNS(=O)(=O)c1ccc(Br)s1
    -1.1	i	1	-10	41	65	99
- Cc1ccc(/C=C/C2=Cc3c(sc(NC(=O)CSc4n[nH]c(N)n4)c3C#N)C(C)(C)C2)o1
    0.8	i	1.1	-3	18	102	78
- CN(CCOc1ccccc1)CC(=O)Nc1cc([N+](=O)[O-])ccc1Cl
    nt	i	0.92	1	-9	45	109
- CN(C)c1nc(/C=C(\C#N)C(N)=O)c(Cl)n1-c1ccc(F)cc1
    nt	i	0.8	12	nt	nt	94

Further results:
The line under a structure holds: GALR2 ag	HSV augment	HSV augment primary fold	PKD1 kinase inh	INS promoter inh	INS promoter inh cell count	RGS16-Gao
- CSc1ncccc1C(=O)OCC(=O)NC1CCS(=O)(=O)C1 (stereo not given)
    -2.4	i	1.1	-10	40	80	98
- COc1ccccc1C1(CC(=O)O)CCOC(C)(C)C1 (stereo not given)
    -1.5	i	0.89	1	-58	112	110
- O=C1CCCCCCC1Sc1ccccc1[N+](=O)[O-] (stereo not given)
    -1.1	i	0.98	-7	-22	96	102
- CN(C)c1ccc(/C=N/N=C(N)N)cc1[N+](=O)[O-]
    nt	i	0.94	0	nt	nt	121
- CCOC(=O)Nc1ccc(C)cc1NC(=O)OCC
    -0.9	nt	nt	-1	8	136	102
- CC(C)n1cnc2cc(NCc3ccco3)ccc21
    -1.1	i	0.85	11	-32	78	138
- COc1ccc(N2C(=O)C(CC(=O)Nc3ccccc3)N(Cc3cccs3)C2=O)cc1 (stereo not given)
    nt	i	0.98	6	nt	nt	98
- Cc1cc([N+](=O)[O-])cc(C)c1OCC(=O)N/N=C/c1ccc(OC(=O)c2ccccc2Br)cc1
    -0.1	i	0.94	11	45	149	95
- COc1cc(C(=S)N2CCOCC2)cc(OC)c1OS(=O)(=O)c1ccc(NC(C)=O)cc1
    -0.8	i	0.93	4	14	110	106
- COc1cc(OC)cc(C(=O)N2CCN(c3ccccc3F)CC2)c1
    0.7	nt	nt	3	56	86	111
- O=C1c2oc3ccccc3c(=O)c2C(c2ccccn2)N1Cc1ccccc1 (stereo not given)
    1.8	i	0.98	-3	-8	109	105
- COc1cccc(-c2nc(CS(=O)(=O)CC(=O)NCc3ccccc3OC)c(C)o2)c1
    -1.4	i	0.98	-14	nt	nt	102
- CC(=O)NCc1nc2ccccc2n1Cc1ccccc1F
    -1.0	i	1.1	-4	nt	nt	102
- c1ccc(OCc2nnc3n2N=C(c2ccccc2)CS3)cc1
    nt	i	0.88	2	nt	nt	82
- O=C(COC(=O)[C@H](Cc1ccccc1)NC(=O)c1cccs1)NC1CC1
    -0.2	i	0.95	1	39	105	97
- Cc1ccc(Cn2nnc3c(=O)n(CC(=O)NCc4ccco4)cnc32)cc1
    -1.3	i	0.71	-6	-81	118	98
- [O-][n+]1onc2c3cc(-c4ccccc4)nnc3ccc21
    -3.2	i	0.54	-12	21	108	66
- COc1cc(/C=C/C(=O)OCC(=O)Nc2ccc(NC(C)=O)cc2)cc(S(=O)(=O)N2CCc3ccccc32)c1OC
    nt	i	0.8	3	nt	nt	104
- CCCCCCc1ccc(-c2ncc(N)cn2)cc1
    0.1	i	0.74	-2	-19	171	95
- O=C(CSc1nc(O)cc(=O)n1-c1ccccc1)Nc1ccccn1
    nt	i	1.1	-2	0	110	98

One compound at a time (already shown).
Profile of COc1cc(/C=C/C(=O)OCC(=O)Nc2ccc(NC(C)=O)cc2)cc(S(=O)(=O)N2CCc3ccccc32)c1OC → GALR2 ag = nt; HSV augment = i; HSV augment primary fold = 0.8; PKD1 kinase inh = 3; INS promoter inh = nt; INS promoter inh cell count = nt; RGS16-Gao = 104
Profile of COc1cc(OC)cc(C(=O)N2CCN(c3ccccc3F)CC2)c1 → GALR2 ag = 0.7; HSV augment = nt; HSV augment primary fold = nt; PKD1 kinase inh = 3; INS promoter inh = 56; INS promoter inh cell count = 86; RGS16-Gao = 111

Following part
The line under a structure holds: GALR2 ag	HSV augment	HSV augment primary fold	PKD1 kinase inh	INS promoter inh	INS promoter inh cell count	RGS16-Gao
- O=C(O)/C=C\C(=O)Nc1ccc(N2CCN(c3ccc(F)cc3)CC2)cc1
    nt	i	0.85	-2	nt	nt	96
- Cc1cc(NC(=O)c2ccc(F)cc2F)n(-c2nc3ccccc3[nH]2)n1
    1.1	i	0.71	-4	2	141	98
- O=C(CSc1ccc2nnc(-c3ccc(Cl)cc3)n2n1)N1CCCc2ccccc21
    -0.9	i	0.92	6	-6	60	58
- CCOC(=O)c1cc(C)[nH]c1C
    nt	i	1.1	nt	nt	nt	95
- COc1ccc(NC(C)=O)cc1NC(=O)CN1CCN(C(=O)c2ccco2)CC1
    -1.2	i	0.94	-7	nt	nt	i
- CCOC(=O)c1ccc(Cn2c(-c3ccccc3)nnc2-c2ccccc2)o1
    0.7	i	0.84	8	19	93	99
